Compound activity deposited in PubChem BioAssay by Broad Institute.
Vaccinia stage – Vaccinia orthopox stage-specific inhibition; Vaccinia-infected cells, mCherry/Venus stage reporter fluorescence; hits give low values; some inactives read as strong as hits; actives 0.01% (n = 89,000); activity change (mCherry), % (concentration not given with the values);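 active = mCherry past -33% and 40 or more points under the early reporter, replicates agreeing; inconclusive = past -33% without that gap or agreement; tested in A549 cells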;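 also: scaled between vehicle wells and reference inhibitor wells; 23 nL library stock went into each well; one replicate is shown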
Vaccinia stage Venus – further read-out of Vaccinia stage, marked with its call; activity change (Venus), %; measured here: Venus reporter, other viral stage;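 negative = less Venus signal; first of two replicates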
Active calls of the source: *; ? = inconclusive; . = no result given; & = joins results of further samples. Not all compounds are listed; the hit share may differ from the screen's.

SMILES,Vaccinia stage,Vaccinia stage Venus
CO[C@H]1CN(C)C(=O)c2cc(NC(=O)c3ccccc3)ccc2OC[C@H](C)N(C(C)=O)C[C@H]1C,0.4,-1.7
C[C@H]1CN([C@@H](C)CO)C(=O)c2cccc(N(C)C)c2O[C@H]1CN(C)C(=O)Nc1ccc(F)cc1,15.6,8.0
C[C@@H]1CN([C@@H](C)CO)C(=O)c2cc(NS(=O)(=O)c3ccc(Cl)cc3)ccc2O[C@@H](C)CCCCO[C@H]1CN(C)Cc1ccc(C(=O)O)cc1,20.9,10.5
O=C(C[C@H]1C=C[C@@H](NC(=O)c2ccccc2)[C@H](CO)O1)NCCc1ccncc1,7.4,4.2
COc1ccc(S(=O)(=O)N(C)C[C@@H]2Oc3c(NC(=O)Nc4cccc5ccccc45)cccc3C(=O)N([C@H](C)CO)C[C@@H]2C)cc1,?,.
C[C@@H]1CN([C@H](C)CO)C(=O)c2cc(NC(=O)c3ccncc3)ccc2O[C@H]1CN(C)C(=O)Nc1ccc(C(F)(F)F)cc1,6.8,9.3
C[C@@H]1CN([C@H](C)CO)C(=O)c2cccc(NS(=O)(=O)c3cn(C)cn3)c2O[C@@H]1CN(C)Cc1ccc(C(F)(F)F)cc1,8.1,20.8
CC=Cc1ccc2n(c1=O)C[C@@H]1[C@@H](CO)[C@H](C(=O)N3CCc4ccccc4C3)N[C@H]21 (mixture of isomers),-3.0,0.9
COCC(=O)Nc1ccc2c(c1)[C@H]1C[C@@H](CC(=O)NCc3ccccn3)O[C@@H](CO)[C@H]1O2,-5.4,-15.2
C[C@@H]1CN([C@@H](C)CO)C(=O)Cc2cc(NC(=O)Cn3cnnn3)ccc2O[C@@H]1CN(C)Cc1ccncc1,7.4,-0.2
C[C@@H]1CN([C@@H](C)CO)C(=O)c2ccccc2-c2ccccc2CO[C@@H]1CN(C)C(=O)c1cc(Cl)cc(Cl)c1,?,.
CCC(=O)N1C[C@@H](O)COC[C@@H]2O[C@@H](CC(=O)N3CCCCC3)CC[C@H]21,15.3,13.8
CCC(=O)N1[C@@H]2c3ccc(-c4ccccc4)c(=O)n3C[C@@H]2[C@@H](CO)[C@@H]1C(=O)N1CCCCC1,13.2,10.7
C[C@@H]1CN([C@@H](C)CO)C(=O)c2cc(NC(=O)C3CC3)ccc2O[C@H]1CN(C)S(=O)(=O)c1ccc(F)cc1,8.7,8.1
CN(C)Cc1cn(CC[C@@H]2CC[C@H](NC(=O)Nc3ccc4c(c3)OCO4)[C@H](CO)O2)nn1,0.4,1.2
C[C@@H]1CCCCO[C@H](CN(C)Cc2ccc(Cl)c(Cl)c2)[C@@H](C)CN([C@H](C)CO)C(=O)c2cc(NS(=O)(=O)c3ccccc3)ccc2O1,?,.
O=C(C[C@@H]1CC[C@@H]2[C@H](COC[C@H](O)CN2C(=O)Nc2ccc(F)cc2)O1)NC1CCC1,7.1,0.2
COc1ccc(S(=O)(=O)N2CC[C@@H]3[C@H]2c2cc(C#Cc4cccnc4)ccc2N[C@@H]3CO)cc1,8.0,0.2
COC(=O)[C@H]1[C@H](CO)[C@H]2Cn3c(ccc(-c4ccccc4)c3=O)[C@@H]1N2S(=O)(=O)c1ccccc1C,-1.3,2.0
C[C@@H]1CN([C@@H](C)CO)C(=O)c2cc(C3=CCCCC3)cnc2O[C@@H]1CN(C)C(=O)C1CCOCC1,14.3,15.5
Cc1noc(C)c1S(=O)(=O)Nc1cccc2c1O[C@H](CN(C)Cc1ccc(Cl)c(Cl)c1)[C@H](C)CN([C@@H](C)CO)C2=O,-2.1,-4.4
COCC(=O)N1C[C@@H]2[C@H](c3ccccc31)[C@H](CO)N2C(=O)c1ccccc1F,19.6,16.7
CCCC#Cc1ccc([C@H]2[C@H]3CN(C(=O)NC4CCCC4)CC(=O)N3[C@H]2CO)cc1,0.1,-1.1
CCC(=O)N(C)C[C@H]1Oc2cc(C#CCC(C)C)ccc2S(=O)(=O)N([C@@H](C)CO)C[C@@H]1C,-19.0,-17.4
O=C(NCC[C@H]1CC[C@@H](NC(=O)c2cccnc2)[C@@H](CO)O1)Nc1ccc(F)cc1,10.6,13.1
C[C@H]1CN([C@@H](C)CO)C(=O)Cc2cc(NC(=O)Cc3ccccc3)ccc2O[C@@H]1CN(C)Cc1ccc(Cl)c(Cl)c1,?,.
O=C(C[C@@H]1C[C@@H]2c3cc(NC(=O)Nc4ccc(C(F)(F)F)cc4)ccc3O[C@@H]2[C@@H](CO)O1)NCc1ccccn1,8.2,2.5
COc1ccc(CN2CC3(CN(C(=O)C4CCC4)C3)c3c(n(C)c4cc(OC)ccc34)[C@@H]2CO)cc1,3.5,-1.3
O=C(NCC[C@H]1CC[C@H](NC(=O)C2CCC2)[C@H](CO)O1)c1ccc(F)cc1,3.6,8.1
C[C@H]1CN([C@@H](C)CO)C(=O)Cc2cc(NS(=O)(=O)c3cccs3)ccc2O[C@@H]1CN(C)C(=O)Nc1ccc(C(F)(F)F)cc1,14.3,14.1
COc1ccc(S(=O)(=O)Nc2ccc3c(c2)C(=O)N([C@@H](C)CO)C[C@@H](C)[C@@H](CN(C)CC2CC2)O3)cc1,2.4,6.8
COc1ccc(CN(C)C[C@H]2Oc3c(NC(=O)C4CCOCC4)cccc3C(=O)N([C@@H](C)CO)C[C@@H]2C)cc1,16.9,9.2
N#C[C@H]1[C@H](c2ccc(C#Cc3ccccc3F)cc2)[C@H](CO)N1C(=O)C1CCC1,-21.5,-18.9
CC(C)NC(=O)N(C)C[C@@H]1Oc2ccc(NC(=O)Nc3ccc(F)cc3)cc2C(=O)N([C@H](C)CO)C[C@H]1C,5.4,4.8
Cc1noc(C)c1S(=O)(=O)Nc1ccc2c(c1)C(=O)N([C@@H](C)CO)C[C@@H](C)[C@H](CN(C)S(=O)(=O)c1ccc(F)cc1)OCCCC[C@H](C)O2,-32.7,-24.9
COc1ccccc1S(=O)(=O)N[C@H]1CC[C@@H](CCn2cc(C3CC3)nn2)O[C@H]1CO,2.4,7.0
CC(C)C#Cc1ccc2c(c1)O[C@H](CN(C)C(=O)c1ccncc1)[C@@H](C)CN([C@@H](C)CO)S2(=O)=O,-2.0,-3.2
C[C@H](CO)N1C[C@H](C)[C@H](CN(C)S(C)(=O)=O)Oc2ccc(NS(=O)(=O)c3ccccc3)cc2C1=O,3.0,4.7
C[C@@H]1CCCCO[C@@H](CN(C)Cc2ccc(Cl)c(Cl)c2)[C@H](C)CN([C@@H](C)CO)C(=O)c2cc(NS(=O)(=O)c3ccc(F)cc3)ccc2O1,?,.
C[C@@H]1CN([C@@H](C)CO)C(=O)c2cccc(NS(=O)(=O)c3ccc(F)cc3)c2O[C@@H]1CN(C)S(=O)(=O)c1ccc(F)cc1,8.1,5.7

Reprinted from the part before: 5 entries, followed by the next part.
compound	Vaccinia stage	Vaccinia stage Venus
COc1ccccc1S(=O)(=O)N[C@H]1CC[C@@H](CCn2cc(C3CC3)nn2)O[C@H]1CO	2.4	7.0
CC(C)C#Cc1ccc2c(c1)O[C@H](CN(C)C(=O)c1ccncc1)[C@@H](C)CN([C@@H](C)CO)S2(=O)=O	-2.0	-3.2
C[C@H](CO)N1C[C@H](C)[C@H](CN(C)S(C)(=O)=O)Oc2ccc(NS(=O)(=O)c3ccccc3)cc2C1=O	3.0	4.7
C[C@@H]1CCCCO[C@@H](CN(C)Cc2ccc(Cl)c(Cl)c2)[C@H](C)CN([C@@H](C)CO)C(=O)c2cc(NS(=O)(=O)c3ccc(F)cc3)ccc2O1	?	.
C[C@@H]1CN([C@@H](C)CO)C(=O)c2cccc(NS(=O)(=O)c3ccc(F)cc3)c2O[C@@H]1CN(C)S(=O)(=O)c1ccc(F)cc1	8.1	5.7
C[C@@H]1CCCCO[C@@H](CN(C)S(=O)(=O)c2ccccc2)[C@@H](C)CN([C@@H](C)CO)C(=O)c2cc(NS(C)(=O)=O)ccc2O1	34.7	14.0
C[C@@H]1CN([C@H](C)CO)C(=O)Cc2cc(NC(=O)CCCCCC(=O)Nc3ccccc3N)ccc2O[C@@H]1CN(C)S(=O)(=O)c1ccccc1	1.9	8.6
Cc1noc(C)c1NC(=O)Nc1ccc2c(c1)CC(=O)N([C@H](C)CO)C[C@@H](C)[C@H](CN(C)C(=O)Nc1ccc(F)cc1)O2	23.6	11.2
CCCNC(=O)C[C@@H]1CC[C@H]2[C@@H](COc3ccc(NC(=O)c4cccs4)cc3C(=O)N2C)O1	1.3	-0.2
CN(C)C(=O)[C@@H]1[C@@H](CO)[C@@H]2Cn3c(ccc(C4=CCCC4)c3=O)[C@@H]2N1Cc1ccc2c(c1)OCO2	-3.2	-0.7
C[C@@H](NC(=O)C[C@@H]1C[C@@H]2c3cc(NC(=O)CC4CC4)ccc3O[C@@H]2[C@H](CO)O1)c1ccccc1	9.8	16.1
COCC(=O)N(C)C[C@H]1Oc2ncc(C#CCC3CCCC3)cc2C(=O)N([C@H](C)CO)C[C@@H]1C	11.3	0.6
Cc1noc(C)c1S(=O)(=O)Nc1ccc2c(c1)C(=O)N([C@H](C)CO)C[C@H](C)[C@H](CN(C)C(=O)Nc1ccc3c(c1)OCO3)OCCCC[C@H](C)O2	-8.2	-0.5
COc1ccc(S(=O)(=O)Nc2ccc3c(c2)C(=O)N([C@H](C)CO)C[C@@H](C)[C@@H](CN(C)C(=O)c2ccccc2)OCCCC[C@H](C)O3)cc1	-6.3	-5.5
COc1cccc(-c2ccc3c(c2)[C@@H]2[C@@H](CCN2C(=O)c2ccccc2F)[C@H](CO)N3C)c1	?	.
C[C@@H]1CN([C@@H](C)CO)C(=O)c2cc(NS(=O)(=O)c3cccs3)ccc2O[C@H]1CN(C)Cc1ccc(Oc2ccccc2)cc1	7.2	0.3
O=C(C[C@@H]1CC[C@@H]2[C@H](COC[C@@H](O)CN2S(=O)(=O)c2ccccc2)O1)Nc1ccc(-c2ccccc2)cc1	?	.
C[C@@H]1CN([C@H](C)CO)C(=O)c2cc(NC(=O)Cn3cnnn3)ccc2O[C@@H]1CN(C)Cc1ccc2c(c1)OCO2	7.9	5.9
COCC(=O)N1[C@@H]2c3ccc(-c4ccncc4)c(=O)n3C[C@@H]2[C@@H](CO)[C@@H]1C(=O)Nc1ccccc1	6.1	9.1
CC(C)CC#Cc1ccc([C@@H]2[C@H](CO)N3CCCCN(C(=O)Nc4ccccc4)C[C@@H]23)cc1	?	.
Cc1cccc(CN(C)C[C@@H]2OCc3cnnn3CCCC(=O)N([C@@H](C)CO)C[C@H]2C)c1	1.7&7.1	-2.3&7.0
C[C@H]1CN([C@@H](C)CO)S(=O)(=O)c2ccc(C#CCN(C)C)cc2O[C@@H]1CN(C)Cc1ccc2c(c1)OCO2	?	.
CCCC(=O)Nc1ccc2c(c1)C(=O)N(C)[C@@H]1CC[C@@H](CC(=O)NCC3CC3)O[C@H]1CO2	4.6	0.2
C/C=C/c1ccc([C@H]2[C@@H](CO)N(C(=O)C3CCC3)[C@@H]2CNC(=O)NC(C)C)cc1	1.8	10.8
O=C(C[C@H]1CC[C@H](NC(=O)c2ccncc2)[C@H](CO)O1)NCC1CC1	10.6	6.0
O=C(C1CCC1)N1CC(=O)N2[C@@H](CO)[C@@H](c3ccc(-c4cccnc4)cc3)[C@@H]2C1	-6.0	-5.3
COCC(=O)N1C[C@H](C)[C@H](OC)CN(C)C(=O)c2cc(NC(=O)c3ccccc3)ccc2OC[C@@H]1C	-9.0	-11.1
COc1ccccc1-c1ccc2n(c1=O)C[C@@H]1[C@@H](CO)[C@H](C(=O)N3CCCCC3)N(C)[C@H]21	-17.4	-4.0
CO[C@H]1CN(C)C(=O)c2cc(NC(=O)c3ccccc3)ccc2OC[C@H](C)NC[C@@H]1C	-3.7	2.4
Cc1ccc(-c2cnc3c(c2)C(=O)N([C@H](C)CO)C[C@@H](C)[C@H](CN(C)C(=O)c2ccccc2)O3)cc1	-20.2	-11.2

Two of these compounds in a different format.
Every second line gives: Vaccinia stage, Vaccinia stage Venus
- CO[C@H]1CN(C)C(=O)c2cc(NC(=O)c3ccccc3)ccc2OC[C@H](C)NC[C@@H]1C
 : -3.7, 2.4
- Cc1ccc(-c2cnc3c(c2)C(=O)N([C@H](C)CO)C[C@@H](C)[C@H](CN(C)C(=O)c2ccccc2)O3)cc1
 : -20.2, -11.2

(next part)
compound	Vaccinia stage	Vaccinia stage Venus
Cc1noc(C)c1NC(=O)N(C)C[C@H]1OCCCC[C@H](C)Oc2ccc(NS(=O)(=O)c3ccc(F)cc3)cc2C(=O)N([C@H](C)CO)C[C@@H]1C	8.9	1.3
OC[C@@H]1[C@H](c2ccc(C3=CCCCC3)cc2)[C@@H](CNC2CCCC2)N1CC1CC1	-23.2	-9.2
COc1ccccc1NC(=O)N1[C@H](C#N)[C@H](c2ccccc2)[C@H]1CO	9.5	6.7
O=C(C[C@@H]1CC[C@H]2[C@@H](COC[C@H](O)CN2C(=O)Nc2ccc(C(F)(F)F)cc2)O1)NCC1CC1	-8.3	-1.3
C[C@@H]1CN([C@H](C)CO)C(=O)Cc2cc(N(C)C)ccc2O[C@H]1CN(C)S(=O)(=O)c1ccccc1	12.6	0.5
C[C@H](O)C#Cc1ccc2c(c1)O[C@H](CN(C)Cc1ccc(-c3ccccc3)cc1)[C@@H](C)CN([C@@H](C)CO)S2(=O)=O	?	.
Cc1noc(C)c1S(=O)(=O)N(C)C[C@@H]1Oc2ccc(NS(=O)(=O)c3cccs3)cc2C(=O)N([C@@H](C)CO)C[C@@H]1C	5.7	-0.7
CO[C@@H]1CN(C)C(=O)c2ccc(NC(=O)NC(C)C)cc2OC[C@H](C)N(C(=O)CC2CC2)C[C@H]1C	10.8	12.1
C[C@@H]1CN([C@H](C)CO)C(=O)c2cc(NC(=O)CCC(F)(F)F)ccc2O[C@H]1CN(C)Cc1ccc(C(=O)O)cc1	7.1	2.9
O=C(C1CCCCC1)N1CC(=O)N2[C@H](C1)[C@@H](c1ccc(-c3ccccc3F)cc1)[C@@H]2CO	?	.
